D2 PAM – Beta-Arrestin HTS for Positive Allosteric Modulators of the Human D2 Dopamine Receptor: Potentiators | DiscoveRx D2 beta-arrestin cells, luminescence, 90 min; 100% = 57 uM dopamine signal | hit rate 0.23% among 360,000 | D(2) dopamine receptor (Homo sapiens), P14416 | potentiation, % (no concentration beside the values) | AID 624464, 2012; active = potentiation of 50% or more; inconclusive = 30% to 50%; inactive = 30% or less;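 also: compound concentration not given in the record; tested on top of an EC20 dose of dopamine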
Target sequence (P14416 whole entry, looked up): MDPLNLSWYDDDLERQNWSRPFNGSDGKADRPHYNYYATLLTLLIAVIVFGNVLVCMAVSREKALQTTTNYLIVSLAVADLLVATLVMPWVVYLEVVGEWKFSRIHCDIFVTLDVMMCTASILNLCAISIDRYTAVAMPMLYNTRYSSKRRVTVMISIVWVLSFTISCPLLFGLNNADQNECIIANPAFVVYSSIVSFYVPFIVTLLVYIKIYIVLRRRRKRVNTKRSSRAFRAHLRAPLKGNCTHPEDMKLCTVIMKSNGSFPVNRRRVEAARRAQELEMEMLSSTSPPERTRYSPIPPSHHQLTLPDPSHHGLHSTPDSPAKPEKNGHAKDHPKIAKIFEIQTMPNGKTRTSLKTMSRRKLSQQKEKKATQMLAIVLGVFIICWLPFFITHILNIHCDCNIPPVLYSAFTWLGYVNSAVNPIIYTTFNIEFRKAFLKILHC
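D2 cells co-treated with compound plus 50 nM dopamine (EC20) for 90 min at 37 deg C to detect potentiation. Beta-arrestin recruitment was read as enzyme-fragment luminescence after 1 h at ambient temperature. Full response was set by 57 uM dopamine.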
D2 agonist – Beta-Arrestin HTS for Positive Allosteric Modulators of the Human D2 Dopamine Receptor: Agonists; D(2) dopamine receptor (Homo sapiens), P14416; hit rate 0.084% among 360,000; activation, % (test concentration not listed); DiscoveRx PathHunter D2 beta-arrestin, luminescence, 90 min; 100% = 57 uM dopamine signal; in the data active = activation above about 40%; inconclusive = about 15% to 40%; inactive = below about 15%; also: compound concentration not given in the record; the text of the record calls up to 30% inactive
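Agonist mode: compounds alone added to overnight-plated D2 PathHunter cells for 90 min at 37 C, with 57 uM final dopamine (EC100) defining full response. Beta-arrestin recruitment detected by chemiluminescent reagent, read after 1 h at ambient temperature.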
PINK1 expr mod – A Quantitative High throughput Screen to Identify Chemical Modulators of PINK1 Expression. PINK1 immunofluorescence, high-content cytometry, 24 h. Potency, µM (doses to about 76.6 µM), without a hit: at the top dose activation (PINK1 increase), actives largely listed as activators. hit rate 0.2% among 410,000. AID 624263, 2012; active = well fitted activation curve with a large enough effect; inconclusive = small, poorly fitted or top-dose-only effect; inactive = flat fitted curve, though single readings scatter; cell line not stated here;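 also: potency is read from the fitted curve at half-maximal effect; % of control where 0% means no effect; nearly all actives have a fitted effect of over 65% in size; a mitochondrial uncoupler was the plate control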
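PINK1 protein, normally rapidly degraded, was detected by immunofluorescence after 24 hour compound treatment of a stable cell line. Titration data (5 concentrations) came from laser-scanning cytometry, with CCCP-treated wells as controls.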
TRPML1 ag – qHTS for Agonists of the Human Mucolipin Transient Receptor Potential 1 (TRPML1). Mucolipin-1 (Homo sapiens), Q9GZU1. TRPML1-expressing cells, Ca2+ dye fluorescence, FDSS; host cell line not named in the record; reference of the full effect not given here. AID 624414, 2012. hit rate 0.12% among 410,000. activation, % (no concentration beside the values); in the data active = activation above about 50%; inconclusive = about 30% to 50%; inactive = below about 30%; also: 0% is about no effect; the text of the record puts the active cut at 80%
Target sequence (Q9GZU1 whole entry, looked up): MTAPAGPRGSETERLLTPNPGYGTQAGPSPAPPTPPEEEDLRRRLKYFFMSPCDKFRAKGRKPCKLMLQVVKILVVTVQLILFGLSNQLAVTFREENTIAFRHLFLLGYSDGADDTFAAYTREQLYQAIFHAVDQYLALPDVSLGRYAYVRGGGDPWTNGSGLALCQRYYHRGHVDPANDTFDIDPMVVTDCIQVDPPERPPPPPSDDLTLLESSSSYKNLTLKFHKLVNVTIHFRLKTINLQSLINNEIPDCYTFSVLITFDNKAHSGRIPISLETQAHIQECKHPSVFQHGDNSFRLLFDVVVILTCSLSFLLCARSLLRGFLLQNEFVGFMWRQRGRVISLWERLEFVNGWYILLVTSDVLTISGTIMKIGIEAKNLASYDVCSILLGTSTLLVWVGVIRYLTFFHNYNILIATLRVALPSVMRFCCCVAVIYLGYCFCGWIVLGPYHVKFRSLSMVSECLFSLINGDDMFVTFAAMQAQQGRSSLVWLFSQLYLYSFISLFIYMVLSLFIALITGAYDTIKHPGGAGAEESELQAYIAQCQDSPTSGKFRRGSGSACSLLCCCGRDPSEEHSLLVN
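Tetracycline-induced TRPML1-DL cells are seeded and incubated overnight before loading with a no-wash Ca2+ dye and quencher. Agonist activity is taken from the 110 s fluorescence read following compound pin-transfer on an FDSS, before EC80 54-4 challenge.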
CtBP-E1A blk – qHTS Assay for Inhibitors of the CtBP/E1A Interaction | hit rate 0.49% among 340,000 | CtBP / adenovirus E1A interaction (AlphaScreen) | activity change, % (concentration not given with the values) | AlphaScreen GST-E1A/His-CtBP binding, 1536-well; hits give low values; control for the full effect not named in the record; in the data active means activity change below about -65%; inconclusive means about -30% to -65%; inactive means above about -30%; also: % is scaled to controls: 0 for no effect and ±100 for the full control effect
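AlphaScreen with 125 nM GST-E1A and 125 nM His-CtBP (5X stocks) in Tris pH 8.0, 300 mM NaCl, BSA, Tween 20, TCEP. Compounds preincubated 2 h at 37 deg C, then glutathione donor/nickel acceptor beads added for 1 h at 37 deg C in dark.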
Six1-Eya2 inh – qHTS Assay for Inhibitors of the Six1/Eya2 Interaction | hit rate 0.56% among 360,000 | activity change, % (concentration not given with the values) | AlphaScreen GST-Six1/His-Eya2 binding, biochemical; hits give low values; control for the full effect not named in the record | Homeobox protein SIX1 (Homo sapiens) + Protein phosphatase EYA2 (Homo sapiens), …; in the data active = activity change below about -65%; inconclusive = about -30% to -65%; inactive = above about -30%; also: % is scaled to controls: 0 for no effect and ±100 for the full control effect
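Compounds are tested against tagged Six1 and Eya2 proteins bridged by glutathione donor and nickel acceptor beads; after a one-hour incubation at 37 °C without light, AlphaScreen emission is recorded.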
Starred values were filed as active, the others as inactive; ? = inconclusive; nt = no result given; [ ] = remark or other dose.

SMILES	D2 PAM	D2 agonist	PINK1 expr mod	TRPML1 ag	CtBP-E1A blk	Six1-Eya2 inh
COc1ccc(Cl)cc1C(=O)NNC(=O)CNC(=O)c1ccco1	-3	6.7	-0.8%	-0.4	-1	5
C=CCn1c(Cc2ccccc2)n[nH]c1=S	4	5.0	1.9%	0.5	0	4
Cc1ccc(S(=O)(=O)CC(=O)Nc2nc(C(C)(C)C)cs2)cc1	-1	1.6	3.6%	0.5	5	-4
COc1ccc(NC(=O)C2(S(=O)(=O)c3ccc(C)cc3)CC2)cc1OC	-4	-0.6	-0.1%	-0.5	4	11
CCOC(=O)c1ccccc1NC(=O)CSc1nc(N)cc(N)n1	-17	-3.1	-1.9%	-0.8	-6	-3
COc1ccc(C(=O)CSc2nnc(CNc3ccc(F)cc3)o2)cc1	8	-1.5	0.1%	0.0	4	-8
CCCC(=O)NCc1nc2ccccc2n1CC(=O)c1ccccc1	-14	-5.8	6.8%	-0.1	-5	8
Cc1ccc(-n2nc3c(c2NC(=O)c2ccc4c(c2)OCO4)CSC3)c(C)c1	-10	-2.7	11%[38.3 µM]	0.2	0	3
O=C(Cn1[nH]c(=O)c2ccccc2c1=O)Nc1cccc(-c2nnc3n2CCCCC3)c1	-14	-4.4	1.3%	-0.7	-7	-16
CNc1nc(Cl)c(SC)c(NC2CCCCC2)n1	-4	1.1	4.9%	0.0	0	-3
COc1ccccc1-c1cnc(C(O)c2c(C)cccc2C)[nH]1 (stereo unspecified)	-13	-4.4	0.5%	-0.5	-6	0
Cc1ccc(NC(=O)c2ccccc2OCC(=O)c2ccccc2)cc1	-1	-0.5	7.8%	0.1	8	3
Cn1c(COc2ccccc2)nnc1SCCSc1nnc(COc2ccccc2)n1C	-3	-3.3	0.8%[38.3 µM]	2.3	7	1
Nc1ccc2ncccc2c1	?	5.4	1.2%[38.3 µM]	0.2	-3	1
O=C(Nc1ccc(NC(=O)C2CCCN2C(=O)OCc2ccccc2)cc1)c1ccco1 (stereo unspecified)	-1	0.9	0.0%	-0.6	6	13

Gathered by group, those above containing a furan ring, fused or not (2)
SMILES	D2 PAM	D2 agonist	PINK1 expr mod	TRPML1 ag	CtBP-E1A blk	Six1-Eya2 inh
COc1ccc(Cl)cc1C(=O)NNC(=O)CNC(=O)c1ccco1	-3	6.7	-0.8%	-0.4	-1	5
O=C(Nc1ccc(NC(=O)C2CCCN2C(=O)OCc2ccccc2)cc1)c1ccco1 (stereo unspecified)	-1	0.9	0.0%	-0.6	6	13

Other compounds.
SMILES	D2 PAM	D2 agonist	PINK1 expr mod	TRPML1 ag	CtBP-E1A blk	Six1-Eya2 inh
CC(C)(C)OC(=O)NCc1ccc(CNC(=O)c2nc[nH]c2C(=O)NCc2ccccc2)cc1	-11	-2.7	2.1%	2.3	-14	-3
COc1ccc(C(CC(=O)N2CCCCC2)c2c(OC)cc(OC)c3c(-c4ccccc4)cc(=O)oc23)cc1 (stereo unspecified)	-17	-1.3	0.7%	0.6	nt	-10
O=C(Nc1ccc(F)cc1F)c1c(C(F)(F)F)ccnc1Oc1ccc(Cl)cc1	-8	-2.6	2.1%	0.1	2	10
CCC(Sc1nncn1C)C(=O)Nc1cc(C)on1 (stereo unspecified)	6	-1.6	0.6%	-0.7	5	-1
CCOC(=O)c1csc(NC(=O)Nc2cccc(Cl)c2)n1	-5	2.5	8.1%	-0.4	7	7
Cc1n[nH]c(C)c1S(=O)(=O)N1CCCC(C(=O)NCc2ccc(F)cc2)C1 (stereo unspecified)	-2	-5.6	2.1%	-0.2	-2	0
O=c1oc(-c2ccc(Br)cc2)nc2ccccc12	2	5.3	0.0%	1.6	6	1
CCCS(=O)(=O)c1nc(S(=O)(=O)c2ccc(C)cc2)c(N2CCc3ccccc3C2)s1	-11	-0.3	-2.3%	0.7	-15	-6
COC(=O)c1ccc(NC(=O)c2cccc(C)c2)cc1	-6	-3.6	0.0%	-0.1	6	-10
COc1ccc(CCNC(=O)c2ccc(Cl)cc2)cc1	-8	-2.1	-4.0%	0.3	3	-5
CC(C)CN(C(=O)CN1CCOCC1)c1c(N)n(CC(C)C)c(=O)[nH]c1=O	-14	0.7	1.2%	-0.1	-1	2
Cc1ccccc1-c1ccc(C(=O)NCc2ccccc2)o1	-28	-1.9	-0.4%	-0.6	nt	4
COC(=O)C1=NN(c2ccc(OC)cc2)C2C(=O)N(c3ccccc3OC)C(=O)C12 (stereo unspecified)	-5	-3.8	0.1%	-0.4	7	4
CN1CCN(c2ccc(NC(=O)c3ccccc3)cc2)CC1	-9	6.4	0.5%	0.5	5	2
CC(NC(=O)c1sc2ccccc2c1Cl)C1CCCO1 (stereo unspecified)	-3	1.6	3.0%	0.8	6	6

Among those listed so far, these contain a tert-butyl group.
SMILES	D2 PAM	D2 agonist	PINK1 expr mod	TRPML1 ag	CtBP-E1A blk	Six1-Eya2 inh
Cc1ccc(S(=O)(=O)CC(=O)Nc2nc(C(C)(C)C)cs2)cc1	-1	1.6	3.6%	0.5	5	-4
CC(C)(C)OC(=O)NCc1ccc(CNC(=O)c2nc[nH]c2C(=O)NCc2ccccc2)cc1	-11	-2.7	2.1%	2.3	-14	-3

(further entries)
SMILES	D2 PAM	D2 agonist	PINK1 expr mod	TRPML1 ag	CtBP-E1A blk	Six1-Eya2 inh
COC(=O)c1cc(OC)c(OC)cc1NC(=O)Nc1ccc(OC)cc1	-4	-0.8	1.1%	-0.1	-10	-18
COc1cccc(C(=O)NCC(c2cccs2)N2CCc3ccccc32)c1 (stereo unspecified)	6	1.1	-0.9%	2.9	?	?
O=C(O)c1cc(-n2nnnc2SCc2ccc([N+](=O)[O-])cc2)ccc1Cl	-5	-1.7	0.9%	-1.1	4	-16
Cc1ccc(C(=O)N2CC(C(=O)O)C2)cc1	-4	-0.8	-1.2%	0.2	-1	0
CCOc1ccc(N=C2NC(=O)C(CC(=O)Nc3ccccc3)S2)cc1 (stereo unspecified)	1	-5.0	-0.6%	1.1	0	7
BrC(=C\c1ccccc1)/C=N/n1cnnc1	-8	-0.3	-2.3%	-0.3	nt	-1
O=C(c1ccco1)N1CCN(c2cc(C(F)(F)F)nc3ncnn23)CC1	-10	-0.6	-3.4%[38.3 µM]	-0.1	-7	-4
C=CCNC(=O)c1onc(CSc2cccc(OC)c2)c1C(=O)O	-4	-1.6	1.8%	-0.2	nt	-7
NC(=O)c1ccc(NC(=O)COc2coc(CN3CCc4ccccc4C3)cc2=O)cc1	-24	-4.2	3.3%	-0.2	2	-21
COc1cc(NC(=O)C2CCCCC2)c(OC)cc1NC(=O)CCC(=O)NCc1ccco1	-1	2.0	-0.3%[38.3 µM]	-0.4	1	-1
NC(=O)c1ccc(NC(=O)Cc2cccs2)cc1	-3	0.6	-0.4%	0.0	3	-6
COc1ccccc1NS(=O)(=O)c1cc(NC(=O)Cn2cnc3c2c(=O)n(C)c(=O)n3C)ccc1C	-6	-0.9	3.7%	-0.5	0	-6
CCOc1cc(-c2cc(-c3ccc(C)o3)nc(N)c2C#N)ccc1O	14	3.1	6.2%	2.2	-11	-7
Cn1c(=O)n(C)c2cc(/C=C3/NC(=O)N(Cc4ccccc4)C3=O)ccc21	4	-0.6	?	0.7	1	4
Cc1c(NC(=O)/C(C#N)=C/c2ccc(-c3ccc(Cl)cc3)o2)c(=O)n(-c2ccccc2)n1C	?	10.0	-0.8%	-0.3	8	?
CCc1cc(-c2n[nH]c(C)c2-c2ccccc2Cl)c(O)cc1OC	-9	-1.1	6.2%	nt	-18	-15
O=C(N/N=C/c1ccc(OC(=O)c2cccs2)cc1)c1ccccn1	-7	2.5	9.0%	-0.2	0	-10
CCC(C)N1CCNCC1 (stereo unspecified)	-4	-2.1	5.9%	-0.7	0	8
CC(C)(C)c1ccc(OC(=O)CN2C(=O)C3C4CCC(C4)C3C2=O)cc1 (stereo unspecified)	0	1.6	1.8%	3.0	-6	11
CC1CCCC(NC(=O)CSc2n[nH]c(=O)n2Cc2ccccc2)C1C (stereo unspecified)	-6	-3.9	-0.6%	0.4	-16	-10
CCOc1ccc(NC(=S)N2CCN(S(=O)(=O)c3ccc(C)cc3)CC2)cc1	6	-1.3	-0.1%	-0.7	-6	-11
Cn1c(=O)c2c(nc(SCc3ccc(C(=O)O)cc3)n2C)n(C)c1=O	-4	4.3	3.6%	-0.2	nt	-6
O=c1cc(-c2ccccc2Cl)oc2c(NS(=O)(=O)c3cccs3)ccc(O)c12	-6	-3.8	-0.3%	-1.1	-2	-12
COc1ccc(/C(N)=N/OC(=O)Cc2ccccc2OC)cc1	1	0.5	-3.3%	0.7	27	27
COC1=C(OC)c2ccccc2C(C(=O)O)N/C1=C(/C)Nc1ccncc1 (stereo unspecified)	-9	2.3	1.3%	0.1	-1	15
O=C(CCCc1ccccc1)N1CCN(C2CCCCC2)CC1	-40	2.2	0.2%	0.2	nt	-8
CS(=O)(=O)c1cccc(C(=O)OCC(=O)c2ccc3c(c2)OCCO3)c1	-7	-0.9	0.1%	0.3	0	3
CC(=O)N(C)c1ccc(NS(=O)(=O)Cc2ccccc2)cc1	-4	-1.4	2.1%	-0.7	3	1
COc1cc(C(=O)NCc2ccc3c(c2)cc(C)n3C)cc(OC)c1OC	-9	-0.7	8.8%	2.3	-19	-13
CCN1C(=O)[C@@H]2[C@@H](c3ccc(-c4ccc(C(C)=O)cc4)c(OC)c3)N3CCCC[C@@]3(C(=O)OC)[C@@H]2C1=O	-11	-3.4	0.6%	-0.4	1	-1
CC(C)CCNC(=O)CN(C(=O)Cn1nnc(-c2ccc(F)cc2)n1)C1CCCC1	-7	-0.2	1.9%[38.3 µM]	0.0	-1	0
CCOC(=O)c1cc(-c2ccccc2)n(CC(=O)NC(C)(C)C)c1C	-5	2.4	3.4%	1.3	nt	2
COc1ccc(CC(NC(C)=O)C(=O)NC2CCN(C(=O)c3cc(OC)c(OC)c(OC)c3)CC2)cc1 (stereo unspecified)	-10	-3.6	-0.6%	0.6	3	-2
O=C(c1ccc(C(F)(F)F)cc1)C1CCCN(C(=O)c2csnn2)C1 (stereo unspecified)	-12	-0.1	2.3%	-0.3	nt	20
Brc1cccc(-c2nc(-c3ccncc3)no2)c1	-20	-0.8	1.3%	2.5	11	-8
N#Cc1nc(-c2ccccc2)oc1NCCN1CCCCC1	-37	-1.9	0.8%	0.2	4	2
Cn1ncc(Br)c1NC(=O)c1ccco1	-3	0.5	0.7%	-0.9	-1	5
COc1ccccc1NS(=O)(=O)c1ccc2oc(=S)[nH]c2c1	1	-2.5	0.4%	-0.6	2	-12
S=c1[nH]c2cc3ccccc3cc2[nH]1	7	?	0.3%	0.5	-8	-3
O=C(CSc1nnc(-c2ccco2)o1)NCCc1ccccc1	-1	-5.1	2.8%	-0.6	nt	-3
C/C(=N\NC(=O)C1CC1)c1ccc(Cl)c(Cl)c1	0	-2.1	-2.2%	0.1	-5	5
